# Bioassay records deposited in PubChem BioAssay by Broad Institute.
# RanGTP-Impb inh = inhibitors of RanGTP-importin-beta interaction, primary screen, biochemical, FRET, CFP-Ran, YFP-importin-beta, homogeneous; cell-free CFP-Ran/YFP-importin-beta FRET ratio; inhibition, % (no concentration beside the values); hit rate 1.1% among 300,000; AID 2216;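 active means most replicates above 15%; inconclusive means exactly half above 15%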;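 further: 0% = DMSO wells and 100% = Ran loaded with GDP instead of GTP; wells of about 40 µL received 100 nL stock; the first replicate is given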
# FGF22 binding = shifts melting point of recombinant human FGF22; calls only at 9.99 µM; hit rate 1.5% among 340,000; recombinant FGF22 thermal shift, SYPRO orange fluorescence; percent of sucrose octasulfate shift, DMSO zero; Q9HCT0;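 active means melting point raised past a set limit in the mean and every replicate; inconclusive means no clear call; three in four hits are not shown here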
# Target sequence (Q9HCT0 whole entry, looked up): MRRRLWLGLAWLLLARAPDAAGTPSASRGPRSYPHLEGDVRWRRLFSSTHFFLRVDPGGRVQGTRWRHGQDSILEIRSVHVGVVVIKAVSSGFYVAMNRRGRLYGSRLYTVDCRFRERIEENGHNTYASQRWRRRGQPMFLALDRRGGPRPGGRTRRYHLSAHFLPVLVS
# Beta apoptosis = blocks beta cell apoptosis; protection from apoptosis, % (concentration not given with the values); hit rate 0.8% among 300,000; INS-1E cytokine-induced death, ATP luminescence, 48 h; percent of positive-control rescue, neutral wells zero;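 active means all replicates at 75% or more, or half of them and the mean; inconclusive means half reach 75% but not the mean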;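 further: 0% = cytokine-treated negative control wells and 100% = positive control rescue; higher means more ATP so stronger rescue from cytokine killing; wells of about 40 µL received 100 nL stock; the first replicate is given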
# T cruzi repl = blocks replication of Trypanosoma cruzi | T. cruzi beta-gal in NIH3T3, luminescence, 90 h | inhibition, % (test concentration not listed) | hit rate 1.4% among 300,000 | AID 1885;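 active means mean inhibition across valid replicates above about 55%, limit read from the data; inconclusive means mean below that limit but half or more replicates reach it; inactive means mean below it, under half of replicates reach it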;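 further: signal also drops with host cell toxicity which is not excluded here; 0% = plate median of DMSO wells and 100% = zero luminescence signal; higher percent means less beta-gal luminescence so fewer parasites; stock transfer was 50 nL into about 50 µL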
# Calb FLC = C. albicans growth modulation with fluconazole. C. albicans CaCi-2 (fluconazole-resistant clinical isolate) + fluconazole, Alamar Blue growth, 48 h. growth inhibition, % (test concentration not listed). hit rate 0.57% among 300,000;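 active means most replicates above 75%; inconclusive means exactly half above 75%; inactive means most below 75%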;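 further: all wells also contain fluconazole at 8 µg/ml as a sub-toxic cotreatment; 0% = median of DMSO wells and 100% = median of geldanamycin control wells; wells of about 8 µL received 7.5 nL stock; the first replicate is given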
# AF4-AF9 inh = blocks AF4 peptide binding to human AF9; AlphaScreen, biotin-AF4 peptide binding to FLAG-AF9; hit rate 0.47% among 350,000; P42568; inhibition, % at 10 µM;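 active means every replicate reaching a set inhibition limit, whatever the replicate mean, cut at about 25% in these data; inconclusive means mean inhibition reaches that limit but some replicates miss it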;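 further: 0% = plate neutral control median and 100% = total signal loss; the record names both 10 and 1 µM as test concentration; the first replicate is given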
# Target sequence (P42568 whole entry, looked up): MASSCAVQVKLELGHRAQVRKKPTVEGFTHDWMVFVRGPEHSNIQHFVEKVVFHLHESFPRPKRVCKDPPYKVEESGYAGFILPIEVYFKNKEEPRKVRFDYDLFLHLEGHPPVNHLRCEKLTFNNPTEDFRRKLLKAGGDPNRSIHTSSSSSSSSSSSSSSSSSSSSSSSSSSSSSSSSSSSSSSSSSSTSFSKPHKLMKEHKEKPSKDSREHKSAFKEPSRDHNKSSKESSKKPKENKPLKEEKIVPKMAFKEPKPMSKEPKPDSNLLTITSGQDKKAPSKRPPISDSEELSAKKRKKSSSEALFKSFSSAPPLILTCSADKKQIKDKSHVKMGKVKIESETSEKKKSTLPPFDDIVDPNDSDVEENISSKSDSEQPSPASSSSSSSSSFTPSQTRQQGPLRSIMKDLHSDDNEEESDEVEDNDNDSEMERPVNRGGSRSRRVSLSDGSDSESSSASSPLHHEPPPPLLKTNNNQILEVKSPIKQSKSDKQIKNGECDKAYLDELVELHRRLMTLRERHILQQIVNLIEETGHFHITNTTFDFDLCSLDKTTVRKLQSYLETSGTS
# Ecoli rRNA inh = inhibits bacterial ribosomal RNA function over humanized ribosomes. E. coli WT GFP vs humanized-ribosome RFP mutants, fluorescence, 24 h; hits give low values; DMSO median 0, no signal -100. GFP signal change (wild-type ribosome), % (concentration not given with the values). hit rate 1.6% among 350,000;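 active means significant combined selectivity score with lowered wild-type GFP, culture density cut under 30%, mutant RFP and density less affected; inactive means any of these conditions unmet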; further: one replicate is shown; some compounds called inactive have numbers as strong as hits
# ALR H2O2 inh = inhibitors of human sulfhydryl oxidase ALR. hit rate 3.8% among 290,000. purified ALR, DTT oxidation, H2O2 HRP-luminol luminescence. inhibition, % (test concentration not listed). P55789;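 active means mean and each replicate at 75% or more; inconclusive means only one of the two met; inactive means neither met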;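 further: stock transfer was 7.5 nL into about 7.5 µL; 0% = neutral wells and 100% = wells with inactivated enzyme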
# Target sequence (P55789 whole entry, looked up): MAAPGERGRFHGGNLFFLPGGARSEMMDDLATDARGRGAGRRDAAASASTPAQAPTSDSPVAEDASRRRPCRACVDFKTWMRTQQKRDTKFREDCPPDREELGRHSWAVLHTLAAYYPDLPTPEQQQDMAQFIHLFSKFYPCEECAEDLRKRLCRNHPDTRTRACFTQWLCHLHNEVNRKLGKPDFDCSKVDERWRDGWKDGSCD
# Ecoli rRNA inh OD600 = also measured in Ecoli rRNA inh; calls as there; OD600 change, %; measured here: OD600 growth;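 optical density of the mix in the first replicate; 0 = DMSO median and -100 = no signal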
# Ecoli rRNA inh RFP = second read-out of Ecoli rRNA inh, no call of its own (marks repeat the call); RFP signal change, %; measured here: RFP humanized mutant strains;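 first replicate; 0 = DMSO median and -100 = no signal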
# * hit, by the source's call; i = inactive; ? = inconclusive; / = not tested or not shown; + = active, no number. This is a subset (hit frequency here may not be typical).
SMILES,RanGTP-Impb inh,FGF22 binding,Beta apoptosis,T cruzi repl,Calb FLC,AF4-AF9 inh,Ecoli rRNA inh,Ecoli rRNA inh OD600,Ecoli rRNA inh RFP,ALR H2O2 inh
Cc1cc(C)n(CCc2nc3c4ccccc4n(CC#N)c(=O)n3n2)n1,-3.1,/,-3,-3,-7,/,/,/,/,-17
CC(C)c1cc(C(F)(F)F)n2nc(C(=O)Nc3ccc(-n4cnnn4)cc3)cc2n1,?,i,0,-4,4,-3.3,4,16,4.5,2
Cc1c(NC(=O)C2CCCNC2=O)c(=O)n(-c2ccccc2)n1C (stereo not drawn),-6.5,/,-5,-13,-2,/,/,/,/,2
COc1ccc(NC(=O)c2n[nH]c(=O)c3ccccc23)cc1S(=O)(=O)N1CCCCC1,-3.7,/,1,-13,1,/,/,/,/,-15
S=C(NCc1ccccc1)N1CCn2cccc2C1c1cccnc1 (stereo not drawn),6.3,i,/,59*,0,6.3,8,14,0.8,/
CC(C)C(=O)Nc1nnc(SCC(=O)Nc2ccc3c(c2)OCCO3)s1,1.1,+,7,-7,-2,9.2,3,14,1.3,49
COC1(OC)C=CC(=O)C=C1NC(=O)c1ccccc1OC(C)=O,6.5,i,36,-24,12,-4.1,-8,0,-7.1,-2
Cc1cc2c(cc1C)N(CC(=O)N1CCCC1)C(=O)CC(c1ccccc1)=N2,-1.8,/,0,-5,4,/,/,/,/,-5
O=C(CN1CCC(O)(c2ccc(F)cc2)CC1)NCc1ccc(F)cc1,1.6,/,0,27,-23,/,/,/,/,7
Oc1ccc(Cl)cc1C1=NNC(c2cccs2)C1 (stereo not drawn),-3.1,i,6,-18,-14,5.5,-55,-80,-26,2
NC(=O)c1cc(N2C(=O)C=CC2=O)ccc1Cl,-6.2,/,-19,-15,-5,/,/,/,/,15
C=CCNC(=S)NNC(=O)c1cc(-c2cccnc2)nc2ccccc12,1.9,i,2,-10,10,-0.6,5,21,4.4,55
COc1ccc(CNC(=S)NCc2ccc(OC)cc2)cc1,0.9,/,0,26,-5,-0.7,-4,-1,-3.3,-1
CCOC(=O)C1=C(O)/C(=C\c2ccc(CNS(=O)(=O)c3ccc(Br)cc3)o2)N=C1C,8.5,/,-6,-5,-26,/,/,/,/,0
CSc1sc(-c2ccnc(SCC(=O)C(C)(C)C)n2)c2c1C(=O)CC(C)(C)C2,2.6,i,3,8,2,-2.3,4,5,3.4,/
CCOC(=O)C1=C(Cn2cnc3ccccc32)NC(=O)NC1c1ccc(Cl)cc1 (stereo not drawn),5.3,i,4,11,12,4.7,-59,-78,-34,-18
CCc1cc(C(=O)N=Nc2c(O)[nH]c3ccc([N+](=O)[O-])cc23)c2ccccc2n1,1.3,i,1,1,24,9.6,3,3,-0.6,/
Nc1nc(SCCO)[nH]c(=O)c1NC(=O)c1ccco1,/,i,0,/,/,-9.4,2,13,-1.1,4
Cc1[nH]c2ccccc2c1/C=N/Nc1nc(N2CCCCC2)nc(N2CCCCC2)n1,-1.2,/,2,26,-10,/,/,/,/,-27
CCOc1ccc(NC(=O)C(c2ccccn2)N(C(=O)CCl)c2ccc(F)cc2)cc1 (stereo not drawn),-2.5,/,-1,-12,-1,/,/,/,/,-2
CCCN(CC(=O)Nc1c(C)cccc1CC)C(=O)SCC,-4.6,/,6,0,-2,/,/,/,/,-14
O=C(CCCC(=O)OCC(F)(F)C(F)F)Nc1nccs1,-2.2,/,/,-4,-2,/,/,/,/,-2
COc1ccc(O)c(/C=N/c2nc3ccccc3n2C)c1,-3.3,i,-3,2,-1,2.5,4,8,-12,/
Cc1cc(Cn2ccnc2)c(C)cc1Cn1ccnc1,?,/,-6,59*,18,/,/,/,/,-3
COc1ccc(-c2c(C#N)c(N)nc3c2CCCC3)cc1OC,-1.6,/,2,7,1,/,/,/,/,-7
O=C(C1CCCN(S(=O)(=O)c2cnc[nH]2)C1)N(CCc1ccccc1)Cc1ccccc1 (stereo not drawn),5.4,i,-21,-4,2,-6.2,-9,-5,-3.7,-2
O=c1oc2ccccc2cc1-c1csc(Cc2nc(-c3ccc(Cl)cc3)cs2)n1,5.0,/,-7,-9,0,/,/,/,/,/
CC(=O)Nc1cccc(Oc2nc(-c3ccccn3)nc3ccccc23)c1,1.4,i,14,-14,-1,-2.1,-10,-14,-0.2,-3
N=C1C(c2nc3ccccc3s2)=C(O)CN1NC(=O)c1c[nH]c2ccccc12,1.3,i,-8,-18,?,-1.3,7,8,2.2,-8
CCn1c(CNC(=O)COc2ccc(C(C)C)cc2)nnc1SCC(=O)Nc1cc(F)ccc1C,2.2,/,-6,0,-4,/,/,/,/,3
CNC(=O)[C@@H]1C[C@H]1[C@@H](NC(=O)CNC(=O)OCc1ccccc1)c1ccccc1,-1.9,i,2,-21,-11,-3.6,5,6,-3.9,-3
N#Cc1c(-c2ccco2)cc(-c2ccccc2)[nH]c1=O,-2.8,i,-1,-1,15,0.8,5,6,6.3,41
Cc1cc(SCc2cc(=O)[nH]c3ccccc23)nc2ccccc12,1.3,/,9,14,0,/,/,/,/,2
CC(C)CC(NC(=O)OC(C)(C)C)C(=O)NC(C(=O)N1CCCC1C(N)=O)C(C)C (stereo not drawn),0.3,/,-7,-7,1,/,/,/,/,-20
CCOC(=O)c1ccc(NC(=O)COc2cc(=O)n(CC)c3ccccc23)cc1,0.4,i,0,0,5,-2.9,6,6,-2.4,/
Cc1ccc(S(=O)(=O)C2(C(=O)NC3CCCCC3C)CC2)cc1 (stereo not drawn),2.7,i,0,-7,-9,-1.8,-1,8,0.2,-3
O=C1C2CC=C(Cl)CC2C(=O)N1CN(Cc1ccco1)CN1C(=O)C2CC=C(Cl)CC2C1=O (stereo not drawn),-1.8,/,-3,-1,-7,/,/,/,/,-2
CCc1n[nH]c(=S)n1/N=C/c1c[nH]c2ccc(Br)cc12,1.7,i,-24,-11,26,-1.9,-32,-36,1.9,-5
COc1cc(NS(=O)(=O)c2ccc(Cl)cc2)c(C(=O)O)cc1OC,3.8,i,-4,-10,56,-3.3,-3,-5,6.5,-20
COCC1CCCCN1C(=O)c1ccc2oc(CCCc3ccccc3)nc2c1 (stereo not drawn),-0.7,i,1,12,9,-0.6,-23,-29,-2.9,-12

# Already shown: an excerpt of the list.
SMILES,RanGTP-Impb inh,FGF22 binding,Beta apoptosis,T cruzi repl,Calb FLC,AF4-AF9 inh,Ecoli rRNA inh,Ecoli rRNA inh OD600,Ecoli rRNA inh RFP,ALR H2O2 inh
COc1ccc(-c2c(C#N)c(N)nc3c2CCCC3)cc1OC,-1.6,/,2,7,1,/,/,/,/,-7
O=C(C1CCCN(S(=O)(=O)c2cnc[nH]2)C1)N(CCc1ccccc1)Cc1ccccc1 (stereo not drawn),5.4,i,-21,-4,2,-6.2,-9,-5,-3.7,-2
O=c1oc2ccccc2cc1-c1csc(Cc2nc(-c3ccc(Cl)cc3)cs2)n1,5.0,/,-7,-9,0,/,/,/,/,/
CC(=O)Nc1cccc(Oc2nc(-c3ccccn3)nc3ccccc23)c1,1.4,i,14,-14,-1,-2.1,-10,-14,-0.2,-3
N=C1C(c2nc3ccccc3s2)=C(O)CN1NC(=O)c1c[nH]c2ccccc12,1.3,i,-8,-18,?,-1.3,7,8,2.2,-8

# Records above printed as active in FGF22 binding.
structure	RanGTP-Impb inh	FGF22 binding	AF4-AF9 inh	Ecoli rRNA inh	Ecoli rRNA inh OD600	Ecoli rRNA inh RFP	ALR H2O2 inh
CC(C)C(=O)Nc1nnc(SCC(=O)Nc2ccc3c(c2)OCCO3)s1	1.1	+	9.2	3	14	1.3	49

# The list continues:
SMILES,RanGTP-Impb inh,FGF22 binding,Beta apoptosis,T cruzi repl,Calb FLC,AF4-AF9 inh,Ecoli rRNA inh,Ecoli rRNA inh OD600,Ecoli rRNA inh RFP,ALR H2O2 inh
O=C(Cn1cc([N+](=O)[O-])cn1)Nc1ccn(Cc2c(F)c(F)c(F)c(F)c2F)n1,3.0,i,-11,12,19,-7.8,-4,-9,-5.3,36
COc1cc(OC)c(OC)cc1CNc1nnnn1C,1.1,i,0,0,4,0.2,6,9,3.3,/
CCc1ccc(-c2ccc3nnc(SC)n3n2)cc1,-1.4,i,-2,4,-1,-3.3,-15,-24,-2.4,3
COc1ccc2nc(C)cc(Sc3nc4ccccc4s3)c2c1,3.3,i,-47,0,4,-16,-14,-10,2.4,99*
CC(=O)Nc1nc(NC(=O)C(Cl)(Cl)Cl)n(-c2ccccc2)n1,0.6,i,-14,-4,3,6.7,-23*,-6.6*,-2.4*,/
CCCCC(=O)N1CCN(c2nc(-c3ccc(F)cc3)cs2)CC1,-2.8,i,/,-1,-9,-3.5,4,3,6.1,/
CCN1C(=O)c2cccc3c(Cl)ccc(c23)C1=O,2.3,i,-4,-8,4,1.8,3,5,0.5,-4
Cn1cc(CCNC(=O)c2ccc3nc(Cc4ccccc4F)oc3c2)cn1,-3.1,i,4,-1,1,-1.4,10,2,-2.8,0
COc1ccc(C(=O)CSc2cc(C)nc(SCC(=O)c3ccc(C)cc3)n2)cc1,-3.6,/,6,20,-1,/,/,/,/,-2
Cc1ccc(-c2cc(C(=O)Nc3cc(C)ccc3O)no2)cc1,3.8,i,-2,-13,-7,-6.4,12,9,-1.7,-7
CCO[C@H]1OC(C(=O)NCc2nc3ccccc3[nH]2)=C[C@@H](C2CC2)[C@@H]1CCCO,-2.8,i,6,-20,0,2.0,-6,-4,1.0,-1
Cc1ccc(CNC(=O)CCS(=O)(=O)c2ccc(Br)cc2)cc1,3.1,i,/,-7,0,-1.6,1,1,-1.6,/
